Source: PubChem
UCH37 inh – blocks the human deubiquitinase UCH37. 330,000 tested, 0.33% active. AID 588478. inhibition, % (no concentration beside the values). purified proteasome/UCH37, Ub-AMC cleavage fluorescence;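 active = mean of two replicates above 20%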;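 also: 0% = compound-free wells with enzyme and 100% = wells lacking proteasome; stock transfer was 100 nL into about 20 µL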
Target sequence (Q9Y5K5 whole entry, looked up): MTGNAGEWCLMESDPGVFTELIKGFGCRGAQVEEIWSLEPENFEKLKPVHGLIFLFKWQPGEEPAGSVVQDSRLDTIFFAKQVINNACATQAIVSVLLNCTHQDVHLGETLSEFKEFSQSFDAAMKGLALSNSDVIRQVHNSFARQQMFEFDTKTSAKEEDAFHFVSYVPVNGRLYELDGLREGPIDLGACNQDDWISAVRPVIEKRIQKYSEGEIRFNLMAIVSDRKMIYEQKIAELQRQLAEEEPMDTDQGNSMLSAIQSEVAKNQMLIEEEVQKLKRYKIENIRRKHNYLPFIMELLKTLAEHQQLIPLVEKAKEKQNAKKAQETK
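Reagent: Ub-AMC substrate; assay system: Proteasome-associated human UCH37 deubiquitinase; controls: no-proteasome and no-compound wells; read-out: % inhibition of Ub-AMC cleavage fluorescence; timing: 30 min preincubation with enzyme, 25 min cleavage at room temperature; signal: AMC fluorescence from Ub-AMC cleavage, excitation 355 nm, emission 460 nm; buffer or medium: Tris-HCl pH 7.4 plus ovalbumin, ATP-MgCl2, DTT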
ALR inh – inhibitors of human sulfhydryl oxidase ALR; inhibition, % (test concentration not listed); 290,000 tested, 3.8% active; purified ALR, DTT oxidation, H2O2 HRP-luminol luminescence; P55789;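 active = mean and each replicate at 75% or more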;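 also: stock transfer was 7.5 nL into about 7.5 µL; 0% = neutral wells and 100% = wells with inactivated enzyme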
Target sequence (P55789 whole entry, looked up): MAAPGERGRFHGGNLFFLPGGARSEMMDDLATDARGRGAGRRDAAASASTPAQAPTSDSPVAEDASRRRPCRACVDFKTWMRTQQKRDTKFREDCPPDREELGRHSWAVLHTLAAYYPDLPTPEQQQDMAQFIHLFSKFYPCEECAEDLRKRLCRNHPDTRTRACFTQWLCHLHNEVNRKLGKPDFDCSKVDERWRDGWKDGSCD
Beta2AR agonist – human beta-2 adrenergic receptor agonism by FAP | P07550 | Am2.2-beta2AR cells, FAP receptor internalization, flow cytometry; reference of the scale not given here | response, % (test concentration not listed) | 340,000 tested, 0.43% active | AID 504454;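 active = response above a set limit, near 3 SD of response in nonfluorescent compounds, cut at about 42% in these data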;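 also: stock transfer was 100 nL into about 11 µL; a reference agonist was the positive control; negative values mostly stem from fluorescent compounds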
HNF4A DNA FP – change in binding of human HNF4 alpha to DNA; AID 1224865; P41235; 360,000 tested, 0.3% active; HNF4a-FITC DNA binding, fluorescence polarization, 1 h; activity change, % at 10 µM; in the data active = activity change above about 30%, passing the limit was not always enough;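 also: controls were the assay level and a saturating level of protein; the project sought stronger binding though the title names inhibitors; some compounds called inactive have numbers as strong as hits; positive values seem to mean higher polarization but the record does not say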
FGF22 binding – shifts melting point of recombinant human FGF22; Q9HCT0; recombinant FGF22 thermal shift, SYPRO orange fluorescence; percent of sucrose octasulfate shift, DMSO zero; calls only at 9.99 µM; 340,000 tested, 1.5% active; AID 651658;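 active = melting point raised past a set limit in the mean and every replicate; three in four hits are not shown here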
Target sequence (Q9HCT0 whole entry, looked up): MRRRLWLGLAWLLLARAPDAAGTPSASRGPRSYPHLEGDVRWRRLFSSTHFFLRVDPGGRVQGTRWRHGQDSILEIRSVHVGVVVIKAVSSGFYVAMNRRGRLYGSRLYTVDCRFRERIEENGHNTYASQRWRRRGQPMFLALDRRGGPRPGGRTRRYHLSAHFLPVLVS
Ecoli rRNA inh – selective bacterial rRNA inhibition in E. coli | E. coli WT GFP vs humanized-ribosome RFP mutants, fluorescence, 24 h; stronger effect = lower value; DMSO median 0, no signal -100 | GFP signal change (wild-type ribosome), % (no concentration beside the values) | 350,000 tested, 1.6% active | AID 720706;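 active = significant combined selectivity score with lowered wild-type GFP, culture density cut under 30%, mutant RFP and density less affected; inactive = any of these conditions unmet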; also: one replicate is shown; some compounds called inactive have numbers as strong as hits
Ecoli growth – blocks Escherichia coli growth; OD600, 23 h; stronger effect = lower value; OD600 absorbance (concentration not given with the values); 330,000 tested, 0.21% active;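 active = OD600 absorbance below the run mean of sample wells minus 3.6 SD, in any replicate, cut at about 0.56 in these data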;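 also: stock transfer was 300 nL into about 60 µL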
Ecoli rRNA inh OD600 – also measured in Ecoli rRNA inh; calls as there; OD600 change, %; measured here: OD600 growth;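 optical density of the mix in the first replicate; 0 = DMSO median and -100 = no signal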
Ecoli rRNA inh RFP – second read-out of Ecoli rRNA inh, no call of its own (marks repeat the call); RFP signal change, %; measured here: RFP humanized mutant strains;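 first replicate; 0 = DMSO median and -100 = no signal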
The depositor's hits bear a star; i = inactive; . = not tested or not shown. Not all compounds are listed, so the mix of outcomes need not match the whole.

UCH37 inh,ALR inh,Beta2AR agonist,HNF4A DNA FP,FGF22 binding,Ecoli rRNA inh,Ecoli rRNA inh OD600,Ecoli rRNA inh RFP,Ecoli growth,Molecule
-1.1,-6,-6,0.9,i,7,11,-2.7,0.72,COc1ccc(OCCCC(=O)NNC(=O)c2ccncc2)cc1
1.3,3,-20,-2.5,.,.,.,.,0.72,Fc1ccc(-c2nc3n(n2)Cc2ccccc2-3)cc1
.,1,4,3.7,i,-1,2,0.0,.,CC(=O)Nc1sc(N/N=C/c2ccc(C)cc2)nc1-c1ccc(C)cc1
.,61,4,1.6,i,-4,-5,-5.9,.,COc1cc(OC)cc(C(=O)NNC(=S)Nc2ccc(S(N)(=O)=O)cc2)c1
2.0,.,-17,-3.7,i,.,.,.,0.7,CC(=O)C(/C=N/c1cc(-c2ccc(C)cc2)nn1-c1ccccc1)=C(\C)O
-2.8,-38,2,0.6,i,7,16,1.5,0.67,Cc1cccc(NC(=O)c2cc(=O)[nH]c3ccccc23)c1
.,9,-1,-11,i,-12,-22,-1.7,.,O=C(N/N=C/c1ccoc1)c1cc(Br)ccc1O
2.5,8,2,1.8,.,.,.,.,0.69,CC(=O)c1cccc(N=Nc2c(C)[nH]c3ccccc23)c1
1.8,.,-1,3.0,i,.,.,.,0.69,Cc1cccc(C(=O)OCC(=O)N(C)C(c2ccccc2)c2ccccc2)c1[N+](=O)[O-]
-51,-5,11,1.5,i,2,-20,0.2,0.65,COc1ccc2oc(C(=O)OC(C)C(=O)NCc3ccccc3)c(C)c2c1 (stereo not drawn)
4.7,1,-9,-3.2,i,7,-5,0.3,0.68,CC(CC(=O)O)CC(=O)Nc1cc(C(F)(F)F)cc(C(F)(F)F)c1 (stereo not drawn)
3.1,-4,-1,-3.0,.,.,.,.,0.68,COc1ccc(Cl)cc1C(=O)Nc1ccccc1N1CCN(C)CC1
-19,24,-2,0.8,i,1,-7,-1.8,0.74,O=C(Nc1ccc(S(=O)(=O)Nc2ncccn2)cc1)C1=NN(c2ccccc2)C(=O)CC1
.,.,.,0.1,i,-18,-30,-0.4,.,Brc1cccc(-c2nc3ccc(Br)cn3c2Cc2ccsc2)c1
-0.3,0,8,-1.4,i,16,8,-0.1,0.73,CC(NC(=O)NC1CCCCC1)C(c1cccs1)N1CCN(C)CC1 (stereo not drawn)
1.2,2,3,0.8,i,-50,-57,-14,0.59,O=C(Nc1cccc(Cl)c1)ON=C1c2ccccc2-c2ccccc21
2.4,-7,-1,-4.6,i,7,-7,6.4,0.68,CC1=C(c2ccccc2)C(=S)NC(C)(C)C1
-1.2,6,2,0.5,.,.,.,.,0.73,O=C(CCN1C(=O)C2CC=CCC2C1=O)N1CCN(c2ccccn2)CC1 (stereo not drawn)
.,.,.,1.8,.,-7,-30,-5.8,.,CCOC(=O)C1=CCN(S(=O)(=O)c2ccccc2F)C1c1cccc(C)c1 (stereo not drawn)
2.3,-111,-1,-2.9,.,.,.,.,0.72,COc1ccc(OC)c(NC(=O)N[C@@H](Cc2ccccc2)C(=O)O)c1
2.2,42,0,3.6,.,.,.,.,0.73,COC(=O)C1=C(C)N(CCc2ccccc2)C(=O)C1
-0.3,-5,-8,-2.4,.,.,.,.,0.69,COc1cccc(C2C(C#N)=C(N)OC3=C2C(=O)CC(c2ccco2)C3)c1OCc1ccc(F)cc1 (stereo not drawn)
0.5,-3,6,-4.1,i,-5,9,5.8,0.65,COc1ccc(CN2CCSc3sccc3C2=O)cc1
-1.0,-9,-4,-0.5,.,.,.,.,0.7,COc1ccc(OC)c(NC(=O)CN2CCN(C(=O)c3ccco3)CC2)c1
1.5,-2,5,-1.3,i,6,11,0.4,0.68,CCCCn1c(N)c(N(CC)C(=O)c2ccc(Cl)c(Cl)c2)c(=O)[nH]c1=O
3.2,-3,-3,-7.9,i,1,2,0.6,0.68,CCc1cccc(NC(=O)CCNS(=O)(=O)c2ccc3[nH]c(=O)oc3c2)c1
.,-4,4,4.2,i,16,14,0.9,.,C/C(=N/NC(=O)CN1CCN(Cc2ccccc2)CC1)c1ccc([N+](=O)[O-])cc1
.,.,.,-1.7,i,9,13,-1.2,.,CC1=C(C(=O)N2CCCCCC2)CC(CC(=O)NCCCN(C)C)C(=O)N1Cc1ccccc1 (stereo not drawn)
5.2,-3,-4,2.8,i,9,7,2.9,0.67,COC(=O)c1cc(=O)n(-c2c(Cl)cc(C(F)(F)F)cc2Cl)[nH]1
0.7,6,-4,-0.5,i,-2,-4,-2.7,0.69,Cc1cc(C)nc(SCC(=O)c2ccc(F)cc2F)n1

Random excerpt: six compounds from above
UCH37 inh,ALR inh,Beta2AR agonist,HNF4A DNA FP,FGF22 binding,Ecoli rRNA inh,Ecoli rRNA inh OD600,Ecoli rRNA inh RFP,Ecoli growth,Molecule
.,1,4,3.7,i,-1,2,0.0,.,CC(=O)Nc1sc(N/N=C/c2ccc(C)cc2)nc1-c1ccc(C)cc1
3.2,-3,-3,-7.9,i,1,2,0.6,0.68,CCc1cccc(NC(=O)CCNS(=O)(=O)c2ccc3[nH]c(=O)oc3c2)c1
2.3,-111,-1,-2.9,.,.,.,.,0.72,COc1ccc(OC)c(NC(=O)N[C@@H](Cc2ccccc2)C(=O)O)c1
4.7,1,-9,-3.2,i,7,-5,0.3,0.68,CC(CC(=O)O)CC(=O)Nc1cc(C(F)(F)F)cc(C(F)(F)F)c1 (stereo not drawn)
2.5,8,2,1.8,.,.,.,.,0.69,CC(=O)c1cccc(N=Nc2c(C)[nH]c3ccccc23)c1
2.2,42,0,3.6,.,.,.,.,0.73,COC(=O)C1=C(C)N(CCc2ccccc2)C(=O)C1

Continued.
UCH37 inh,ALR inh,Beta2AR agonist,HNF4A DNA FP,FGF22 binding,Ecoli rRNA inh,Ecoli rRNA inh OD600,Ecoli rRNA inh RFP,Ecoli growth,Molecule
1.5,1,-4,-1.2,.,.,.,.,0.74,Cc1nnc(SCc2cc(=O)[nH]c(N3CCN(Cc4ccccc4)CC3)n2)s1
0.7,-1,15,5.0,i,-13,-27,1.4,0.66,Cc1ccc(OCCCCNC(C)c2ccccc2)c(C)c1 (stereo not drawn)
2.6,0,-3,0.8,i,7,20,1.4,0.78,COc1cccc(C(=O)NCc2nnc(SCC(=O)Nc3nccs3)n2-c2ccccc2)c1
6.5,1,10,0.2,i,-37,-57,-7.3,0.7,CC(c1ccccc1)n1c(-c2ccc(Cl)cc2)n[nH]c1=S (stereo not drawn)
0.7,-3,-2,4.0,i,-3,8,2.1,0.69,O=C(Cc1csc(-c2ccccc2)n1)NCc1cccs1
-12,-7,-7,0.1,i,.,.,.,0.69,O=C(COc1cc2oc(=O)c3c(c2cc1Cl)CCC3)N1C[C@H]2C[C@@H](C1)c1cccc(=O)n1C2
6.0,-4,5,-1.6,i,7,1,2.7,0.68,CC(C)(C)c1ccc(S(=O)(=O)N2CCC(NC(=O)c3ccco3)CC2)cc1
1.2,46,1,3.3,i,-12,-4,-1.5,0.66,COc1cccc(NC(=O)Nc2ccc(C)c(Cl)c2)c1
-0.9,2,-1,4.5,i,8,1,4.1,0.72,COc1ccc(C(=O)CNc2ccccc2C#N)cc1
1.6,4,-6,-0.1,i,1,0,1.1,0.68,COc1cccc(C(=O)C2CCCN(Cc3c(C)n(C)n(-c4ccccc4)c3=O)C2)c1 (stereo not drawn)
3.3,.,-30,0.5,i,-24,-29,-7.1,0.68,COc1ccc(NC(=O)c2ccccc2-c2ccccc2)c(C)c1
-0.8,17,-5,-1.0,i,-4,-1,-3.4,0.69,Cc1cc(N2CC(C(=O)Nc3nccs3)CC2=O)ccc1C(C)C (stereo not drawn)
0.7,-1,8,0.1,i,18,17,-0.5,0.72,Cc1ccc(Sc2sc(=O)n(C)c2S(=O)(=O)c2ccc(C)cc2)cc1
-11,-2,-31,-1.0,.,.,.,.,0.69,Clc1cccc(-c2ccnc3nc(-n4cccc4)nn23)c1
.,.,.,-3.3,i,0,-1,15,.,O=C1NC[C@H](Cc2ccc(O)cc2)N(C[C@@H]2CCCN2C[C@H](Cc2ccc(O)cc2)N2C[C@H](Cc3ccccc3)N(CCc3ccccc3)C(=O)C2=O)C1=O
2.1,-4,-8,-2.0,i,2,5,-0.6,0.66,CSCC[C@H](NC(=O)[C@@H]1Cc2ccccc2CN1)C(=O)NC1CCCCC1
5.3,10,24,1.3,i,-6,-18,-4.9,0.68,O=C(Nc1cc(Cl)ccc1Oc1ccccc1)C1=COCCO1
-13,3,-11,-5.7,i,.,.,.,0.66,O=C(NCCN1CCNCC1)c1ccccc1O
-163,-2,2,96,.,.,.,.,0.73,c1ccc(Nc2ccc3c4c(cccc24)CC3)cc1
1.9,-3,-1,0.3,i,-53,-72,-27,0.66,COc1ccccc1N1CCN(CC(=O)Nc2ccc(Cl)c(C(F)(F)F)c2)CC1
1.8,-4,17,1.2,.,.,.,.,0.68,CCOC(=O)Nc1ccc(S(=O)(=O)Nc2nccc(C)n2)cc1
3.6,-9,-2,-1.2,.,.,.,.,0.7,CCc1ccc(Oc2cc(Cl)nc(N)n2)cc1
4.7,0,2,3.4,i,2,0,3.0,0.66,Cc1ccc(C(O)c2ccc(-n3ccnc3)cc2)cc1 (stereo not drawn)
.,4,3,5.6,i,-4,-11,5.0,.,N#Cc1ccccc1NC(=O)COC(=O)CCc1ccccc1
3.9,-36,25,-0.3,i,-29*,-16*,-1.4*,0.68,Cc1cccc(N(C(=O)Nc2ccc(Cl)cc2)C2=NCC(C)S2)n1 (stereo not drawn)
0.7,-4,11,0.0,.,.,.,.,0.67,CCn1c(SCC(=O)Nc2ccc(C(C)=O)cc2)nc2nc3c(cc2c1=O)CCCC3
-0.9,-3,0,-0.5,.,.,.,.,0.67,O=P(c1cccs1)(c1cccs1)c1cccs1
1.0,-4,2,0.1,i,11,-1,0.6,0.72,COc1ccccc1-n1c(COc2ccccc2-c2ccccc2)nnc1SCC(=O)c1c(N)n(C)c(=O)n(C)c1=O
.,-7,-7,34,.,.,.,.,.,CCOC(=O)/C(=N\Nc1ccc(C(C)=O)cc1)c1csc(Nc2ccccc2)n1
0.5,-2,2,-2.9,i,9,14,-0.4,0.67,NC(=O)c1ccccc1NC(=O)CN1CCCCCC1
1.8,5,9,-0.4,i,-11,-13,-0.2,0.66,Cc1cccc(C(=O)NCC(=O)OCCOc2ccccc2Cl)c1
.,-29,1,5.4,i,-55,-70,-19,.,NS(=O)(=O)c1ccc(N/N=C/c2ccccc2Br)cc1
5.4,.,5,1.3,i,7,7,3.1,0.68,CN(C)C(=O)Nc1ccccc1CC[N+](=O)[O-]
3.9,-3,2,3.4,i,4,-1,-1.6,0.7,CCOC(=O)c1cc2sc(C)cc2n1CC(=O)Nc1ccc2c(c1)OCCO2
-0.1,-8,4,5.1,i,2,9,-1.3,0.69,COc1ccc(CCNc2nc(C)nc3c2nnn3Cc2ccccc2)cc1OC
-1.9,72,-6,-1.5,.,.,.,.,0.68,O=C(CCn1c2c(c3ccccc31)CCCC2)NNC(=O)c1ccccc1Cl
.,.,.,2.4,i,0,6,-3.5,.,COc1ccc(/C=C/C(=O)OCC(=O)NC2CCCCCC2)cc1
-56,-3,-2,0.0,.,.,.,.,0.76,O=C(Nc1c(C(=O)Nc2cccc(F)c2)oc2ccccc12)c1ccc2c(c1)OCO2

Exported with values under each structure: part of the list above.
Values run as follows: UCH37 inh | ALR inh | Beta2AR agonist | HNF4A DNA FP | FGF22 binding | Ecoli rRNA inh | Ecoli rRNA inh OD600 | Ecoli rRNA inh RFP | Ecoli growth
COc1ccc(NC(=O)c2ccccc2-c2ccccc2)c(C)c1
→ 3.3 | . | -30 | 0.5 | i | -24 | -29 | -7.1 | 0.68
CN(C)C(=O)Nc1ccccc1CC[N+](=O)[O-]
→ 5.4 | . | 5 | 1.3 | i | 7 | 7 | 3.1 | 0.68
